Hsc70 ATP site = Hsc70 inhibitors, probe displacement, primary screen, biochemical, fluorescence polarization (AID 568). Hsc70 fluorescence polarization, probe displacement; higher % means a stronger effect; strong numbers were not always called active. one-dose displacement, % at 20 µM; IC50 in µM for titrated hits. 83,000 tested, under 10 active;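 active = displacement above 50% without optical interference and an IC50 on retest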;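 also: ATPase domain with a fluorescein-tagged ATP probe; 0% = vehicle and 100% = excess ADP; read after one hour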
MT1-MMP reporter = inhibitors of MT1-MMP promoter transcription, cell-based, luciferase reporter, luminescence (AID 618). MT1-MMP promoter luciferase reporter cells, luminescence. calls from a first round at 10 µM; hits with a dose series show EC50 in µM. actives 0.62% (n = 87,000);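 active = over half of the reporter light lost at 10 µM or EC50 under 50 µM; inactive = the rest and hits that failed the dose series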;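 also: actives suppress MT1-MMP promoter-driven transcription so potencies describe inhibitors; HT1080 fibrosarcoma cells; overnight exposure; toxic or luciferase-blocking compounds were not removed from the actives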
WNV NS2B-NS3 inh = WNV NS2B-NS3 proteinase inhibition | z-score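 (tested at a level between 10 and 100 µM)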 | actives 0.18% (n = 65,000) | WNV NS2B-NS3 protease, fluorogenic substrate Ex360/Em465; hits give low values;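 active = z-score at -3 or under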;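 also: score is relative to mean and spread of the compound wells of a plate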
Target sequence (P06935 1371-1501 limits assumed): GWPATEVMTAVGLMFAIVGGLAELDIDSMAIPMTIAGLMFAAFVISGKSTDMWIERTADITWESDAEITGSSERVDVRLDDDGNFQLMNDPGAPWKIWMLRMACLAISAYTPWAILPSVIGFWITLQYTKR
Target sequence (P06935 1502-1679 limits assumed): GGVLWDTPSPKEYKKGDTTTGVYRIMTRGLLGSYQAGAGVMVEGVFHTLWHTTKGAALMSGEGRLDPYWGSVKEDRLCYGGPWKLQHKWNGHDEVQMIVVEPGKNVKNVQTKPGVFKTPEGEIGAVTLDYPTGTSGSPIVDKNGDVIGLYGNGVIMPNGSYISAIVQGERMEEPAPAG
* hit, by the source's call; i = inactive; · = not tested or not shown; + = active, no number. This is a subset. The share of hits here may be higher or lower than overall.

SMILES	Hsc70 ATP site	MT1-MMP reporter	WNV NS2B-NS3 inh
CCOc1ccc(N(CC(=O)NC2CCCCC2)C(=O)CSc2nnc(COc3ccccc3)o2)cc1	-2.7%	i	·
COc1cccc(CN(Cc2cccnc2)S(=O)(=O)c2ccc(-n3cnnn3)c(C)c2)c1	-6.4%	i	-0.64
Cc1cc(NS(=O)(=O)c2ccc(Nc3nc(-c4sc(N)nc4C)cs3)cc2)no1	4.2%	i	-0.03
COc1ccc(CN(C2CCCC2)S(=O)(=O)c2ccc(-n3cnnn3)cc2)cc1OC	2.0%	i	0.6
O=C(OCn1nnc2ccccc2c1=O)c1ccc2c(=O)n3c(nc2c1)CCC3	-4.0%	i	0.00926
Cc1cc(C)n(CC(=O)NC2CCCCC2)n1	3.0%	i	0.41
CCC(C)[C@H](NC(=O)Nc1ccc2c(c1)OCCO2)C(=O)O (stereo partly specified)	1.6%	i	0.14
O=C(O)CC1=C(O)C(=O)N(c2ccccc2)C1c1ccc(Cl)cc1 (stereo unspecified)	2.5%	i	·
O=C(NCCC1=CCCCC1)c1cnc2n(c1=O)CCS2	3.6%	i	-0.22
COC(=O)c1ccccc1S(=O)(=O)Nc1ccc2cn[nH]c2c1	4.7%	i	0.04
Cc1ccccc1NC(=O)Cn1cnc2c1c(=O)n(C)c(=O)n2C	-3.2%	i	·
CC1CC1C(=O)OCc1cc(=O)n2cc(Br)ccc2n1 (stereo unspecified)	-6.7%	i	-1.09
O=C(Cn1c(C2CC2)nc2ccccc2c1=O)Nc1ccc(Br)cc1	4.1%	i	0.77
CC(C)CCn1c(=O)c2ccccc2c2ccccc2c1=O	6.4%	i	·
Cc1ccccc1-c1nnc(SCc2ccccc2)o1	0.0%	i	0.23
CC(C)c1ccc(OCc2ccc(C(=O)N3CCN(c4ccccn4)CC3)cc2)cc1	-1.4%	i	-0.54
Cc1ccc(C)c(S(=O)(=O)N2CCN(CC(=O)N3CCc4ccccc4C3)CC2)c1	-6.9%	i	·
CCOC(=O)c1cnc(SCC(=O)N2CCN(C(=O)c3ccco3)CC2)nc1N	-0.2%	i	-0.85
COC(=O)Cc1c[nH]c2ccc(OCC(O)CNC(C)C)cc12 (stereo unspecified)	2.9%	i	-1.1
c1ccc2c(c1)ncn2Cc1nnc2sc(-c3ccc4c(c3)OCO4)nn12	-4.6%	i	-0.29

Shown bar-delimited: part of the list above
smiles | Hsc70 ATP site | MT1-MMP reporter | WNV NS2B-NS3 inh
CC(C)c1ccc(OCc2ccc(C(=O)N3CCN(c4ccccn4)CC3)cc2)cc1 | -1.4% | i | -0.54
Cc1ccc(C)c(S(=O)(=O)N2CCN(CC(=O)N3CCc4ccccc4C3)CC2)c1 | -6.9% | i | ·

Remaining list, next part:
SMILES	Hsc70 ATP site	MT1-MMP reporter	WNV NS2B-NS3 inh
Cc1ccc(N2C(=O)C3Sc4[nH]c(=O)sc4C(c4ccccc4)C3C2=O)cc1 (stereo unspecified)	-4.2%	i	·
O=C(CN1CCOCC1)N1CCN(C(=O)CN2CCOCC2)CC1	-4.8%	i	-0.00595
COC(=O)c1ccc(C(=O)OC)c(NC(=O)CCC(=O)O)c1	7.5%	i	-0.12
CCOc1cc2c3c(c1)C1(Nc4ccccc4S1)C(=O)N3C(C)(C)CC2C (stereo unspecified)	2.4%	i	·
COc1ccc(C(=O)CSc2nc(SC)ns2)cc1OC	-1.3%	i	-0.4
O=C(CSc1nnc(-c2ccc(Br)cc2)n1C1CCCCC1)N1CCCC1	1.4%	i	-0.41
CCOc1ccc(NC(=O)N(CCC(C)C)C2CCN(C(C)=O)CC2)cc1	1.6%	i	·
COc1ccc(OC(=O)c2cccc(S(=O)(=O)N3CCCC3)c2)cc1	-4.7%	i	-0.83
C(=C\c1ccco1)/C=N/n1cnnc1	4.1%	i	0.59
CCOC(=O)C(C)n1cnc2c(nnn2-c2ccc(C)cc2)c1=O (stereo unspecified)	-1.2%	i	0.52
CCOC(=O)c1[nH]c(C)c(C(=O)Nc2cc(Cl)ccc2C)c1C	0.1%	+	-0.36
Cc1nnc(SCC(=O)N2CC(=O)Nc3ccccc32)n1C	0.7%	i	·
CCc1ccc(C(C)NC(=O)c2cc(C)oc2C)cc1 (stereo unspecified)	-4.6%	i	-0.99
CCOC(=O)c1c(C)oc2c(CN3CCN(C)CC3)c(Br)c(OC)c(O)c12	-7.9%	i	-1.21
O=c1cc(CSc2ccc(Cl)cc2)nc(N2CCOCC2)[nH]1	-6.9%	i	1.31
CC(C)n1c(CCCO)nc2ccccc21	4.5%	i	1.52
COc1ccc(Nc2ncccc2C(=O)Nc2ccccc2)cc1	2.4%	i	-1
CC1CCCCN1C(=O)N[C@@H](Cc1ccccc1)C(=O)O (stereo partly specified)	0.0%	i	-0.04
Cc1noc(C)c1COC(=O)c1ccccc1Oc1ccccc1	0.1%	i	0.01
O=C(NCC1c2ccccc2CCN1C(=O)CN1C(=O)c2ccccc2C1=O)C1CCCCC1 (stereo unspecified)	-3.2%	i	·
CCOCCn1c(=O)c2c(nc3n2CCN3c2ccc(CC)cc2)n(C)c1=O	-3.3%	i	-0.13
CCCCc1cc(=O)oc2cc(C)c(CN3CCCC3)c(O)c12	-7.1%	i	1.91
CCCn1c(CN(Cc2ccccc2)Cc2ccccc2)nc2c1c(=O)n(C)c(=O)n2C	0.4%	i	-0.75
COc1cccc(C2(O)CCN(C(=O)Cc3cccnc3)CC2)c1	2.6%	i	·
Nc1nnc(C2CCCC2)s1	4.7%	i	0.63
Cc1cc(=O)oc(C)c1C(=O)Nc1cccc2nonc12	-2.0%	i	0.39
CCOC(=O)c1cnc(SCC(=O)Nc2ccc(NC(=O)CC)c(OC)c2)nc1N	-3.8%	i	0.06
Cc1cccc(OCCCCc2c(C)n[nH]c2C)c1C	1.0%	i	0.58
O=C(CN1CCN(C(=O)c2ccco2)CC1)Nc1ccc2c(c1)OCCO2	0.1%	i	1.82
COc1c(C)cc(Br)cc1C(=O)NCc1cccnc1	7.0%	i	-0.26
COCCNC(=O)C(c1ccco1)N(C(=O)Cn1nnc2ccccc21)c1ccc(C)cc1C (stereo unspecified)	-3.7%	i	-0.69
CC1CCC(NC(=O)C2(C)CCC(=O)N2Cc2cccnc2)CC1 (stereo unspecified)	6.8%	i	0.29
C=CCn1c(SCC(=O)Nc2cc(C)cc(C)c2)nnc1-c1cnccn1	2.3%	i	-0.41
CCN(CC)CC(=O)Nc1c(C)cc(C(C)(C)C)cc1C	-1.2%	i	1.02
COc1ccc(-c2nnc(SCC(=O)Nc3cc(F)ccc3C)o2)cc1	1.9%	i	-2.01
Cc1ccc(N2CC(C(=O)Nc3ccc4c(c3)OCO4)CC2=O)cc1 (stereo unspecified)	-8.6%	i	0.38
CCOC(=O)C1=C(N)Oc2ccc3ccccc3c2C1c1cccnc1 (stereo unspecified)	-5.6%	i	·
O=C(Cn1cnc2c(nnn2Cc2ccc(Cl)cc2)c1=O)NCC1CCCO1 (stereo unspecified)	-0.2%	i	0.13
COc1ccccc1-n1c(C)nnc1SCC(=O)Nc1cc(C)cc(C)c1	-1.2%	i	-9.13*
CCOC(=O)Cn1cnc([N+](=O)[O-])n1	-0.5%	i	·

Some of the entries so far, in CSV form.
canonical_smiles,Hsc70 ATP site,MT1-MMP reporter,WNV NS2B-NS3 inh
CCOc1ccc(NC(=O)N(CCC(C)C)C2CCN(C(C)=O)CC2)cc1,1.6%,i,·
COc1ccc(OC(=O)c2cccc(S(=O)(=O)N3CCCC3)c2)cc1,-4.7%,i,-0.83
C(=C\c1ccco1)/C=N/n1cnnc1,4.1%,i,0.59
CCOC(=O)C(C)n1cnc2c(nnn2-c2ccc(C)cc2)c1=O (stereo unspecified),-1.2%,i,0.52
CCOC(=O)c1[nH]c(C)c(C(=O)Nc2cc(Cl)ccc2C)c1C,0.1%,+,-0.36
Cc1nnc(SCC(=O)N2CC(=O)Nc3ccccc32)n1C,0.7%,i,·
CCc1ccc(C(C)NC(=O)c2cc(C)oc2C)cc1 (stereo unspecified),-4.6%,i,-0.99

More compounds.
SMILES	Hsc70 ATP site	MT1-MMP reporter	WNV NS2B-NS3 inh
O=C(CSc1cccc[n+]1[O-])c1cc2ccccc2o1	-0.4%	i	-0.28
CCOc1ccccc1NC(=O)N1CCC(NC(=O)c2cccc(C)c2)CC1	1.5%	i	0.86
O=C(NC1CCCCC1)n1c(=O)oc2ccc(Cl)cc21	2.2%	i	-0.31
CN1CCN(CC(=O)N2c3ccccc3C(C)(c3ccccc3)CC2(C)C)CC1 (stereo unspecified)	-3.2%	i	-0.47
CCNCCOC(c1ccccc1)c1ccccc1	2.3%	i	·
COc1ccc(NC(=O)CN2C(=O)c3cccc4cccc2c34)cc1OC	1.3%	i	·
O=C(Nc1nnc(C2CC2)s1)c1ccccn1	-2.7%	i	·
O=C(Cc1cccs1)Nc1ccc(NC(=O)c2ccco2)cc1	-5.5%	i	-0.55
CC1(C)CC(=O)c2cc(C(=O)N3CCCC(C)(C)C3)c(=O)n(-c3ccccc3)c2C1	-0.3%	i	0.39
N#Cc1sc2nc(-c3ccccc3)cc(-c3ccco3)c2c1N	6.3%	i	1.73
O=C(CSc1nc2ccccc2s1)Nn1cnnc1	0.6%	i	-0.63
CCOc1ccccc1C(=O)Nc1nncs1	1.8%	i	1.85
Cc1ccc(C(C)C)c(OCc2nnc(SCC(=O)Nc3ncc(C)s3)n2C)c1	3.9%	i	0.42
CC1Cc2ccccc2N1C(=O)CSc1nnc(Cn2nnc3ccccc32)n1C (stereo unspecified)	-4.1%	i	0.77
CC1=C(C(N)=O)C(c2ccccn2)n2nc(SCc3ccccc3)nc2N1 (stereo unspecified)	0.2%	i	-0.8
O=c1c2c3c(sc2nc2n1CCCC2)CCCC3	-4.5%	i	·
CC(=O)NC(CCS(C)(=O)=O)C(=O)Nc1ccc(F)cc1Cl (stereo unspecified)	-3.8%	i	0.43
Cc1ccc2nc(NC(=O)c3ccc(Cl)s3)sc2c1	0.9%	i	0.97
O=C(O)CCCCCNCc1ccncc1	1.6%	i	-0.32
CCn1c(SCC(=O)NC(C)(C)C)nnc1-c1ccoc1C	-1.1%	i	·
CNC(=S)N1N=C(c2ccc(C)cc2)CC1c1ccc(Br)cc1 (stereo unspecified)	1.6%	i	·
Cc1sc2nc(CN(C(=O)NC3CCCCC3)C3CCCCC3)[nH]c(=O)c2c1C	-0.6%	i	·
CCOCCN(C=O)c1cccc(OC)c1	-1.8%	i	-1.31
COc1ccc(-c2nnc(SCC(=O)NCc3cccs3)n2C)cc1	3.0%	i	·
O=C(CSc1nc2c(c(=O)n1-c1ccc(Cl)cc1)SCC2)Nc1nccs1	0.3%	i	0.16
Cc1nn(-c2ccccc2)c(C)c1C(=O)OCC(=O)Nc1ccc2c(c1)OCO2	0.1%	i	-0.61
COc1cccc(CCC(=O)O)c1OC	8.7%	i	-0.47
COc1cc2c(cc1OC)-c1nnc(C)n1C(C)(C)C2	-7.0%	i	-0.05
Brc1ccccc1-c1nc(-c2ccccc2)no1	-3.1%	6.92µM*	-0.36
O=C1CC(N2CCOCC2)C(=O)N1CCc1ccccc1 (stereo unspecified)	-5.1%	i	0.88
CC(C)(Oc1ccc(Cl)cc1)C(=O)Nc1cccnc1	-1.6%	i	1.31
Cc1cccc(OCc2nc(C#N)c(N3CC(C)CC(C)C3)o2)c1 (stereo unspecified)	2.4%	i	0.63
COCCCNCCOCCOc1c(OC)cccc1OC	-3.6%	i	-0.86
Cc1cc(N2CCOCC2)c2c(N)c(C)cc(C)c2n1	1.3%	i	0.5
Cc1nc(CNS(=O)(=O)c2cccc(F)c2)cs1	-1.2%	i	0.06
COc1cc(C2c3c(oc4ccccc4c3=O)C(=O)N2Cc2cccnc2)cc(OC)c1OC (stereo unspecified)	-3.3%	i	0.69
CCOC(=O)C1CCCN(CC(=O)/C=C2/N(C)c3ccccc3C2(C)C)C1 (stereo unspecified)	-12.3%	i	-0.2
CCOC(=O)c1ccc(NC(=O)N2CCN(CCc3ccccc3)CC2)cc1	3.8%	i	-0.23
CC(C)CCOC(=O)/C(=C/c1ccco1)NC(=O)/C=C/c1ccccc1	2.5%	i	·
c1ccc(Nc2ncnc3c2oc2ccccc23)cc1	-1.2%	i	1.38
CCN=c1scc(C)n1/N=C/c1ccsc1	4.6%	i	-0.38
CCn1c(=O)cc(SCC(=O)N2CCN(C3CCCCC3)CC2)c2ccccc21	1.3%	i	0.04
O=S(=O)(c1ccc(Br)cc1)N1CCN(c2cc(-c3ccccc3)nc3ncnn23)CC1	-9.7%	i	-0.34
NC(=O)CSCc1ccc(Br)cc1	5.6%	i	-1.13
O=C(CSc1nnnn1-c1ccc2c(c1)CCC2)Nc1ccc2c(c1)OCCO2	0.2%	i	2.1
CCNC(=O)CSc1nc2cc(OC)c(OC)cc2c(=O)n1CCC1=CCCCC1	-6.5%	i	-1.42
CCOC(=O)C1CCCN(Cc2nc(N)nc(Nc3ccc(OC)cc3)n2)C1 (stereo unspecified)	-0.2%	i	0.72
CCCS(=O)(=O)N1CCCC(C(=O)NCCCOC(C)C)C1 (stereo unspecified)	4.0%	i	-1.38
Fc1cccc(Cl)c1-c1nnc2ccc(N3CCOCC3)nn12	0.1%	i	-1.2
O=C(NCC1CC1)C1CCCN(S(=O)(=O)c2ccc(-n3cnnn3)cc2)C1 (stereo unspecified)	-0.3%	i	-0.6
C=CCSc1nnc(NC(=O)CSc2nnc(C)s2)s1	-1.2%	i	-0.05
CCSc1nnc([C@@H]2CCCN2C(=O)OC(C)(C)C)o1	-0.9%	i	0.44
